Compound activity from PubChem BioAssay.
ClpP mod – qHTS Assay for Activators of ClpP | purified B. subtilis ClpP, FRET peptide cleavage, 20 min | Potency, µM (highest dose often 57.5 µM), for inactives: at the highest dose activity change, negative = active | 340,000 tested, 1.9% active; active = well fitted falling curve with a large enough effect; inconclusive = small, poorly fitted or top-dose-only effect; inactive = no such curve, though single readings can be large or run the other way; further: potency means the concentration at half of the fitted maximal effect; the source files actives as falling curves though it sought activators and does not explain the sign; nearly all actives have a fitted effect of over 65% in size; many hits overshoot -100%
Target sequence (P80244 whole entry, looked up): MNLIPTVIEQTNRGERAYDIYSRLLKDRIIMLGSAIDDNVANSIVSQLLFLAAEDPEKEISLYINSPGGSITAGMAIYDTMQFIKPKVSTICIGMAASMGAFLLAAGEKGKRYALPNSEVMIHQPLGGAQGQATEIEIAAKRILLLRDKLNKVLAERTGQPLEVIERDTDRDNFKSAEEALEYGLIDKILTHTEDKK
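Buffer: 100 mM Tris/HCl pH8, 100 mM KCl, 0.05% low protease BSA, 2.5% glycerol, 0.01% Tween-20. ClpP 10 microg/mL final; 20 min RT; delta FRET normalized to ADEP and DMSO controls.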
TRPML1 blocker – human mucolipin-1 channel inhibition. activity change, negative = inhibition, % (concentration not given with the values). 390,000 tested, 0.02% active. AID 624415. Q9GZU1. TRPML1-inducible cells, Ca2+ dye fluorescence, FDSS; active compounds read low; inhibition of EC80 agonist-evoked calcium signal; in the data active means activity change below about -50%; inconclusive means about -30% to -50%; inactive means above about -30%;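 further: stimulus is agonist 54-4 at its EC80 concentration; on the % scale 0 is the no-effect control and ±100 the full control effect; the text of the record puts the active cut at -80%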
Target sequence (Q9GZU1 whole entry, looked up): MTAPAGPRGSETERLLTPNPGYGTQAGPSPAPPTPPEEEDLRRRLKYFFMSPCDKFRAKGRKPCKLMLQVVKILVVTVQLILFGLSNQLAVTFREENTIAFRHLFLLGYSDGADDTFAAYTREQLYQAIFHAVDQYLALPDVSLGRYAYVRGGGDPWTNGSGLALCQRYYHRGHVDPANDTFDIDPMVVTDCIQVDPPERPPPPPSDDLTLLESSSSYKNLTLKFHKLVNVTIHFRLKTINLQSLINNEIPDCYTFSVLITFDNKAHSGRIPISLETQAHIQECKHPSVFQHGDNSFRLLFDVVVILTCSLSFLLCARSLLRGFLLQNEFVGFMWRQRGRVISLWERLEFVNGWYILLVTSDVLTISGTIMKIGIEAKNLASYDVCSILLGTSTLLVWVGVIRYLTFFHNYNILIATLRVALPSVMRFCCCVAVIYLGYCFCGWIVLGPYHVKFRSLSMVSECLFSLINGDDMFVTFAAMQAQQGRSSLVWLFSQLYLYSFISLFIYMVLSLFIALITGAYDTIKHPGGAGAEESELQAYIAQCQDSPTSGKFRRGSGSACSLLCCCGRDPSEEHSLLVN
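TRPML1-DL cells, Tet-induced overnight (~16 h, 37 °C) at 1,500 cells/well, were loaded with Ca8 no-wash dye plus quencher for 45-90 min at room temperature. Compounds were pinned during FDSS kinetic reading; agonist 54-4 at EC80 (4 uM final) then added.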
gsp antagonist – gsp mutant antagonism; gsp-mutant cells, cAMP HTRF, 30 min; control for the full effect not named in the record; Potency, µM (doses to about 76.9 µM), for the others: at the top dose activity change, negative = inhibition, hits mostly inhibitors; 340,000 tested, 0.4% active; active = falling curve of any shape with a large fitted effect; inconclusive = falling curve, mostly with a smaller effect; inactive = flat or rising curve; cell line not stated here;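 further: intracellular cAMP measured with PDE inhibitor Ro 20-1724 present during compound exposure; potency means the concentration at half of the fitted maximal effect; on the % scale 0 is the no-effect control and ±100 the full control effect; nearly all actives have a fitted effect of over 65% in size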
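HTRF cAMP read-out (cAMP-d2 plus anti-cAMP antibody-K in lysis buffer, 30 min RT). Before lysis, cells are exposed to compounds with […] for 30 min at 37C in DPBS containing Ca/Mg, BSA and Tween 20.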
TRPML1 agonist – activates the human TRPML1 channel | Q9GZU1 | 410,000 tested, 0.12% active | TRPML1-expressing cells, Ca2+ dye fluorescence, FDSS; host cell line not named in the record; reference of the full effect not given here | activation, % (no concentration beside the values); in the data active = activation above about 50%; inconclusive = about 30% to 50%; inactive = below about 30%; further: 0% is about no effect; the text of the record puts the active cut at 80%
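Cells: TRPML1-DL, 1X Tet inducer, ~16 h at 37 degrees C/5% CO2. Dye: ABD Ca8 no-wash + quencher, 45-90 min RT. Read: 10 s baseline, compound add, 110 s agonist phase; 54-4 EC80 (4uM final), 110 s antagonist phase.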
Menin-MLL FL inh – inhibitors of human menin-MLL interaction, wild-type MLL peptide; AID 1766; 290,000 tested, under 10 active; FP activity change, % at 61.4 µM; Fluorescence polarization, fluorescein-MLL peptide displacement from menin; inconclusive = falling polarisation curve, or a change in total fluorescence; inactive = total fluorescence flat and polarisation flat or rising; no compound was filed as active; the % refers to the polarisation; negative = inhibition;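 further: % of control where 0% means no effect; inhibitors lower the polarisation; unlabelled MLL peptide was the positive control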
gsp agonist – gsp mutant agonism | gsp mutant cells, cAMP HTRF, 30 min; control for the full effect not named in the record | Potency, µM (top dose mostly 76.9 µM), for inactives: top-dose activation (cAMP increase), hits mostly activators | 340,000 tested, 0.13% active; active = well fitted activation curve with a large enough effect; inconclusive = small, poorly fitted or top-dose-only effect, or another doubt; inactive = no such curve, though single readings can be large or run the other way; cell line not stated here;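 further: phosphodiesterase inhibitor Ro 20-1724 added with compounds to block cAMP breakdown; potency means the concentration at half of the fitted maximal effect; nearly all actives have a fitted effect of over 60% in size; about a fifth of the inactives were tested at one dose only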
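Cells stably selected in G418 were plated at 2000/well, grown 16-24 hr, then given compounds in DMSO with the PDE inhibitor […] (300 uM solution added) for 30 min at 37C; cAMP was read by HTRF.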
Active calls of the source: *; ? = inconclusive; . = not tested or not shown; & = joins results of further samples; [ ] = another dose, or the depositor's remark.

SMILES	ClpP mod	TRPML1 blocker	gsp antagonist	TRPML1 agonist	Menin-MLL FL inh	gsp agonist
COC(=O)c1ccc(-c2noc(CN(C)CCC3CCCCO3)n2)cc1 (stereo not drawn)	.	10.2	-9.1%	-0.7	1.0	0.5%
Cc1cc(NCCCN2CCOCC2)n2ncc(-c3ccc(Cl)cc3)c2n1	25.1µM*	3.2	17.1%	-0.6	2.7	-27.8%
COc1ccc(C(=O)Nc2cc(=O)n(C)c(=O)n2C)cc1	0.8%	9.5	6.7%	-0.8	0.4	-6.1%
CCOc1ccccc1N1CCN(C(=O)[C@@H]2CCCN2C2=NS(=O)(=O)c3ccccc32)CC1	-1.3%	15.3	-22.0%	-0.8	.	30.3%
CCN(C[C@H]1N[C@@](CC)(C(=O)OC)[C@H]2C(=O)N(Cc3ccccc3)C(=O)[C@@H]12)S(=O)(=O)c1ccc(OC(F)(F)F)cc1	-0.9%	-3.2	-5.9%	-0.5	.	.
CC(OC(=O)c1cccc(-n2cnnn2)c1)C(=O)Nc1cccc(Cl)c1 (stereo not drawn)	1.1%	5.3	-7.2%	0.6	.	19.4%
O=C(NCCN1CCCC1)c1ccc(Cl)cc1	0.8%	3.8	3.7%	0.3	2.0	-1.6%
COc1ccc(C(O)C(CN2CCOCC2)c2ccccc2)cc1F (stereo not drawn)	-6.4%	-8.0	-2.7%	0.2	-1.1	-12.6%
CCOc1ccc(CNC(=O)CCS(=O)(=O)Cc2cccc(Cl)c2)cc1OC	-0.9%	-17.9	4.8%	-0.4	8.4	29.8%
O=C(NN1C(=O)c2ccccc2NC1c1ccccn1)c1ccc(Br)cc1 (stereo not drawn)	-28.8%	2.4	-1.9%	4.2	0.9	11.5%
Cc1cccc(C)c1OCc1cc(C(=O)N2CCC[C@H]2C(N)=O)no1	-0.2%	-8.0	5.9%	0.8	.	3.0%
CNc1ccc(C(=O)OCC(=O)Nc2ccnn2C(C)C)cc1[N+](=O)[O-]	1.7%	9.6	-0.6%	-0.1	.	-1.5%
COc1ccc(CCNC(=O)CCC(=O)Nc2ccc3nc(N4CCN(C)CC4)cc(C)c3c2)cc1OC	4.9%	0.6	-9.8%	-0.1	-4.4	0.9%
CCOC(=O)CSc1nc2cc3c(cc2cc1C)OCO3	-9.7%	-3.3	-8.0%	-0.5&2.4	-1.1	-6.1%[15.4 µM]
O=C(c1cccc(S(=O)(=O)NCc2ccc3c(c2)OCO3)c1)N1CCCC1	-0.9%	16.9	3.7%	-0.8	.	9.4%
COc1cc(SC)ccc1C(=O)Nc1ncc(C)s1	-11.3%	20.4	?	1.1	0.7	8.1%
COc1ccccc1NC(=O)C1=C(C)Nc2ncnn2C1c1sccc1C (stereo not drawn)	-0.2%	-1.4	.	2.3	.	.
CCCn1c(N)c(C(=O)CN(C)CC(=O)Nc2c(C)cc(C)cc2C)c(=O)[nH]c1=O	1.0%	6.0	0.2%	0.5	.	12.7%
CCOC(=O)c1[nH]c(C)c(C(=O)OCC(=O)NCc2ccc(OC)c(OC)c2)c1C	-0.6%	32.8	4.3%	1.4	.	?
CC1(C(=O)NCc2ccc(Cl)c(Cl)c2)Oc2ccccc2NC1=O (stereo not drawn)	.	-26.8	-13.9%	0.9	-5.7	1.4%[15.4 µM]
Cc1ccc(S(=O)(=O)NN=CC2(c3ccccc3)CC2)cc1	-1.7%	8.7	.	3.2	.	-34.7%[inhibitor]
C=CCN(C(=O)CCC(=O)Nc1cc(C)on1)C(C(=O)NC1CCCC1)c1ccc(CC)cc1 (stereo not drawn)	-24.7%	-1.2	4.5%	-1.0	-1.3	-4.2%[15.4 µM]
C/C=C(\C)CN1CCN(c2ccccc2F)CC1	-0.8%	-10.4	12.0%	-0.4	0.9	-0.1%
CCCCC1=CC2=C(c3ccco3)C(=O)C(C)(OC(=O)c3ccc(OC)cc3)C(=O)C2=CN1CC(C)C (stereo not drawn)	0.1%	-7.0	30.3%	-0.4	-13.7[11.7 µM]	?
CC(CSc1nc2ccccc2s1)Cn1c(N2CCCC2)nc2c1c(=O)[nH]c(=O)n2C (stereo not drawn)	0.1%	-11.3	12.2%	-0.5	1.2	-17.2%
Next part:
SMILES	ClpP mod	TRPML1 blocker	gsp antagonist	TRPML1 agonist	Menin-MLL FL inh	gsp agonist
O=c1c2cc(NC(=S)NC3CCN(Cc4ccccc4)CC3)ccc2nc2n1CCCCC2	.	5.9	8.2%	0.0	-1.8	0.2%
COCCNC(=O)C(C)OC(=O)c1nsc(Cl)c1Cl (stereo not drawn)	-1.4%	-9.0	2.7%	-0.4	0.4	16.8%
CN(/N=C/c1cc(Cl)cc(Cl)c1O)c1c(Cl)cccc1[N+](=O)[O-]	.	-9.6	-22.7%	1.5	0.8	-1.7%
N#C/C(=C/c1ccc(Br)s1)C(=O)NCCc1c[nH]c2ccccc12	-1.6%	-13.2	12.5%	-0.2	7.3	?
CC(C)c1ccc(OCC(=O)NCC(c2ccc(Cl)cc2)N2CCOCC2)cc1 (stereo not drawn)	-2.9%	0.6	.	0.1	.	.
CCOc1ccc(C(=O)c2oc3ccccc3c2NC(=O)c2cc(-c3ccc(Cl)cc3)on2)cc1	-9.8%	-14.6	.	-0.1	.	.
CCOC(=O)Cc1csc(SCC(=O)NC2CCCCC2)n1	-2.5%	8.1	0.3%	0.3	1.4	-59.3%[inhibitor]
Cc1ccc(C(C)NC(=O)C2CCCO2)cc1C (stereo not drawn)	-3.3%	4.9	-1.1%	0.6	-2.9	?
COc1ccc(-c2cc(C3CC3)nc3sc(C#N)c(N)c23)cc1	?	-0.6	-1.8%	-0.2	2.5	3.4%
S=C(Nc1ccccc1)N1CCn2c1nc1ccccc12	-10.1%	-0.4	6.2%	-0.4	0.9	-55.8%[inhibitor]
C=CCN(Cc1nc(-c2ccccc2)no1)C(=O)c1ccoc1C	-14.8%	12.0	-0.7%	1.9	.	7.2%
COc1ccc(/C=N/NC(=O)c2ccn[nH]2)cc1CN1CCOCC1	.	-23.8	7.8%	1.4	-0.1	-44.6%[inhibitor]
COc1cccc(CNC(=O)C2=C(C)C(=O)OC23CCC(C)CC3)c1 (stereo not drawn)	-0.4%	2.2	-5.0%	1.8	-7.0	4.8%
CCn1c(SCC(=O)N2CCN(c3ccccc3F)CC2)nnc1-c1ccoc1C	0.0%	-7.7	-1.5%	-0.1	7.9	-20.3%
CC(Sc1ncn[nH]1)C(=O)Nc1ccc(Cl)cn1 (stereo not drawn)	.	-9.7	-0.1%	1.5	.	1.3%[15.4 µM]
C=CCn1c(CNc2ccc(C)cc2)nnc1SCC(=O)N/N=C/c1ccc(O)cc1	0.8%	-7.0	4.1%	0.0	-1.6	?
COC(=O)[C@]1(Cc2ccccc2)N[C@H](CN(C)C(C)=O)[C@@H]2C(=O)N(C)C(=O)[C@@H]21	0.5%	43.7	8.1%	3.7	.	.
O=C(OCCCCN1C(=O)c2ccccc2C1=O)c1ccc(S(=O)(=O)N2CCCC2)cc1	-5.0%	-8.5	-5.5%	-0.1	-1.4	29.6%
Cc1cc(N2CCOCC2)nc2ccc(NC(=O)C3CCC(C)CC3)cc12 (stereo not drawn)	14.1µM*	6.3	7.6%	-0.5	-0.6	5.2%
CCOC(=O)c1cc(C#N)c(SC)nc1C	2.2%	1.1	3.8%	1.8	4.6	16.6%[15.4 µM]
COC(=O)c1cccc(S(=O)(=O)N(Cc2ccco2)Cc2cc3cc(OC)c(OC)cc3[nH]c2=O)c1	28.2µM*	-0.5	-16.7%	0.8	1.1	-35.6%[inhibitor]
CC(C)OCCCNC(=O)CCCn1c(=O)[nH]c2ccsc2c1=O	-4.1%	-7.8	.	-0.5	.	.
CCOC(=O)c1c(NC(=O)CCCOc2ccc(Cl)cc2)sc2c1CCC2	-6.6%	2.3	.	-0.2	.	.
CCCc1cc(=O)oc2cc(OCC(=O)Nc3ccc(CN4CCOCC4)cc3)c(Cl)cc12	?	17.3	-7.1%	0.2	.	-0.6%
O=C(NC1CCCC1)c1cc(=O)[nH]c2ccccc12	?	.	5.5%	.	-5.8	-0.9%

3 compounds drawn at random from those above:
SMILES	ClpP mod	TRPML1 blocker	gsp antagonist	TRPML1 agonist	Menin-MLL FL inh	gsp agonist
CCN(C[C@H]1N[C@@](CC)(C(=O)OC)[C@H]2C(=O)N(Cc3ccccc3)C(=O)[C@@H]12)S(=O)(=O)c1ccc(OC(F)(F)F)cc1	-0.9%	-3.2	-5.9%	-0.5	.	.
O=C(NC1CCCC1)c1cc(=O)[nH]c2ccccc12	?	.	5.5%	.	-5.8	-0.9%
COc1cc(SC)ccc1C(=O)Nc1ncc(C)s1	-11.3%	20.4	?	1.1	0.7	8.1%

Other entries follow.
SMILES	ClpP mod	TRPML1 blocker	gsp antagonist	TRPML1 agonist	Menin-MLL FL inh	gsp agonist
O=C(Nc1ccc(F)cc1)c1ccccc1NC(=O)C1CC=CCC1C(=O)O (stereo not drawn)	-0.9%	-7.1	-14.5%	-0.1	.	?
CC(=O)c1c(N2CCN(c3ccc(F)cc3)CC2)nc(=S)n(Cc2ccccc2)c1C	25.1µM*	29.3	-7.5%	1.5	2.1	-27.2%
CCC(C)NC(=O)C1CCN(C(=O)COc2ccc3c4c(c(=O)oc3c2C)CCCC4)CC1 (stereo not drawn)	3.7%	-3.4	-3.0%	0.6	.	5.2%
Nc1ncc(Br)cc1Br	-1.1%	0.8	-7.8%	-0.3	0.5	-1.3%[15.4 µM]
CCOc1cc(C(=O)Nc2cc(C)ccc2C)ccc1OCC(=O)N1CCCCC1	-2.9%	1.1	-2.9%	0.1	1.5	2.5%[15.4 µM]
NCCN=C1NS(=O)(=O)c2ccccc21	-1.5%	-17.7	3.9%	1.6	0.6	-14.8%
Cc1cc(C)n(-c2nc3ccccc3nc2Nc2ccc3[nH]c(=O)[nH]c3c2)n1	0.5%	27.6	15.1%	1.8	?	-0.1%
O=c1ccc(S(=O)(=O)N2CCCC2)c[nH]1	-2.1%	-5.9	6.2%	0.4	.	8.9%
COc1cccc(OC)c1C(=O)NC(C)CCc1ccccc1 (stereo not drawn)	.	-8.0	2.8%	-0.3	0.1	-24.2%
CC1=C(C(=O)Nc2ccccc2)C(c2cccc([N+](=O)[O-])c2)Nc2nc3ccccc3n21 (stereo not drawn)	0.8%	-4.1	-10.2%	-0.3	1.8	-29.3%
Oc1ccc(Cc2ccc(Cl)cc2)c(O)c1	.	-7.5	-17.4%	3.0	4.7	9.5%
Cc1cccc(NC(=O)CSC2=Nc3ccccc3C3=NC(CCC(=O)NCc4ccco4)C(=O)N23)c1 (stereo not drawn)	-10.3%	-12.4	.	1.3	.	.

In another format: entries from further up.
The line under a structure holds: ClpP mod | TRPML1 blocker | gsp antagonist | TRPML1 agonist | Menin-MLL FL inh | gsp agonist
> Cc1cccc(NC(=O)CSC2=Nc3ccccc3C3=NC(CCC(=O)NCc4ccco4)C(=O)N23)c1 (stereo not drawn)
 : -10.3% | -12.4 | . | 1.3 | . | .
> O=c1ccc(S(=O)(=O)N2CCCC2)c[nH]1
 : -2.1% | -5.9 | 6.2% | 0.4 | . | 8.9%
